Ecoli rRNA inh – reduced GFP signal of wild-type E. coli, primary screen, bacterial rRNA inhibitor project, GFP/RFP fluorescence, OD600, single point | E. coli WT GFP vs humanized-ribosome RFP mutants, 24 h; active compounds read low; DMSO median 0, no signal -100 | GFP signal change (wild-type ribosome), % (concentration not given with the values) | 350,000 compounds, 1.6% hits | AID 720706, 2013;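 active means significant combined selectivity score with lowered wild-type GFP, culture density cut under 30%, mutant RFP and density less affected; inactive means any of these conditions unmet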; further: one replicate is shown; some compounds called inactive have numbers as strong as hits
Vif A3G – inhibitors of Vif binding to APOBEC3G peptide, primary screen, biochemical, TR-FRET, GST-Vif 1-94, biotin-A3G peptide, dose response retest (AID 1117319); TR-FRET GST-Vif / biotin-A3G peptide binding; higher % means a stronger effect; test concentration not given here; strong numbers were not always called active; inhibition, %, or IC50 in µM where a hit was titrated; 260,000 compounds, 0.57% hits;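 active means above the screen mean plus three standard deviations and confirmed in dose response; inconclusive means results disagree or hit not tested in dose response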;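 further: Vif residues 1-94 fused to GST binding biotinylated APOBEC3G peptide 110-148; 0% = full assay without inhibitor and 100% = GST in place of GST-Vif; retest series ran down from 100 µM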
RanGTP-Imp inh – inhibitors of RanGTP-importin-beta interaction, primary screen, biochemical, FRET, CFP-Ran, YFP-importin-beta, homogeneous | Ran GTPase (GTP-bound) - importin-beta complex | 300,000 compounds, 1.1% hits | cell-free CFP-Ran/YFP-importin-beta FRET ratio | inhibition, % (test concentration not listed);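 active means most replicates above 15%; inconclusive means exactly half above 15%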;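 further: 0% = DMSO wells and 100% = Ran loaded with GDP instead of GTP; wells of about 40 µL received 100 nL stock; the first replicate is given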
Calb FLC – C. albicans growth inhibition with fluconazole, primary screen, CaCi-2 strain, Alamar Blue fluorescence. 300,000 compounds, 0.57% hits. growth inhibition, % (test concentration not listed). AID 1979, 2009. C. albicans CaCi-2 (fluconazole-resistant clinical isolate) + fluconazole, 48 h;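 active means most replicates above 75%; inconclusive means exactly half above 75%; inactive means most below 75%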;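 further: all wells also contain fluconazole at 8 µg/ml as a sub-toxic cotreatment; 0% = median of DMSO wells and 100% = median of geldanamycin control wells; wells of about 8 µL received 7.5 nL stock; the first replicate is given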
A1 inh – caspase 3/7 activation in MEF A1-2A-BIM cells, primary screen, A1 inhibitor project, cell-based, luminescence, HTS; 330,000 compounds, 0.066% hits; caspase activation, % (concentration not given with the values); Caspase-Glo 3/7 luminescence, 3 h; percent of clofoctol response, vehicle zero;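 active means over half of replicate activation scores above 10%, or exactly half above 10 with the replicate mean above 10; inconclusive means replicate mean below 10 yet half the replicates above 10; inactive means over half of replicates below 10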;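 further: wells of about 30 µL received 50 nL stock; many hits fall short of the cut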
MLL AF4-AF9 inh – inhibitors of AF4 peptide binding to AF9, primary screen, biochemical, AlphaScreen, biotin-AF4 peptide, FLAG-AF9, single point | Protein AF-9 (Homo sapiens), P42568 | inhibition, % at 10 µM | 350,000 compounds, 0.47% hits | AID 651704, 2012;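 active means every replicate reaching a set inhibition limit, whatever the replicate mean, cut at about 25% in these data; inconclusive means mean inhibition reaches that limit but some replicates miss it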;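 further: 0% = plate neutral control median and 100% = total signal loss; the record names both 10 and 1 µM as test concentration; the first replicate is given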
Target sequence (P42568 whole entry, looked up): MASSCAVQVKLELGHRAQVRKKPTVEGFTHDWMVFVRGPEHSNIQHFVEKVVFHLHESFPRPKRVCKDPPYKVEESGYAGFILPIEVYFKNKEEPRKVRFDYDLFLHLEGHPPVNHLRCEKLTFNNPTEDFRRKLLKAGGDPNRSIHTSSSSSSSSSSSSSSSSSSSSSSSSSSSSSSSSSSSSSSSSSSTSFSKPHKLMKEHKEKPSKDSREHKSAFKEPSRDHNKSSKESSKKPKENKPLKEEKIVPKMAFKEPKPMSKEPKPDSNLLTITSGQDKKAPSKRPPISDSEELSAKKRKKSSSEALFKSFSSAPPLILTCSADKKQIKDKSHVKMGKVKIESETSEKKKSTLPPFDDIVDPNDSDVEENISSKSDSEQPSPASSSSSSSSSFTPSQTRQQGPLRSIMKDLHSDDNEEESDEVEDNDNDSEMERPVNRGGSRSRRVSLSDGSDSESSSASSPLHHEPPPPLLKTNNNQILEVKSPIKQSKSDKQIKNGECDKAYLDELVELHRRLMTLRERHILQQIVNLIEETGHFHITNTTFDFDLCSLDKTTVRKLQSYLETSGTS
T cruzi inh – inhibitors of intracellular T. cruzi growth, primary screen, luminescence, NIH3T3 host cells | T. cruzi beta-gal in NIH3T3, 90 h | 300,000 compounds, 1.4% hits | inhibition, % (no concentration beside the values);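 active means mean inhibition across valid replicates above about 55%, limit read from the data; inconclusive means mean below that limit but half or more replicates reach it; inactive means mean below it, under half of replicates reach it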;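 further: signal also drops with host cell toxicity which is not excluded here; 0% = plate median of DMSO wells and 100% = zero luminescence signal; higher percent means less beta-gal luminescence so fewer parasites; stock transfer was 50 nL into about 50 µL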
Beta apoptosis – inhibitors of cytokine-induced beta cell apoptosis, primary screen, luminescence. protection from apoptosis, % (concentration not given with the values). INS-1E cytokine-induced death, ATP luminescence, 48 h; percent of positive-control rescue, neutral wells zero. 300,000 compounds, 0.8% hits. AID 435005, 2010;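 active means all replicates at 75% or more, or half of them and the mean; inconclusive means half reach 75% but not the mean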;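 further: 0% = cytokine-treated negative control wells and 100% = positive control rescue; higher means more ATP so stronger rescue from cytokine killing; wells of about 40 µL received 100 nL stock; the first replicate is given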
Ecoli rRNA inh OD600 – also measured in Ecoli rRNA inh; calls as there; OD600 change, %; measured here: OD600 growth;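 optical density of the mix in the first replicate; 0 = DMSO median and -100 = no signal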
Ecoli rRNA inh RFP – recorded beside Ecoli rRNA inh, whose call it bears; RFP signal change, %; measured here: RFP humanized mutant strains;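 first replicate; 0 = DMSO median and -100 = no signal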
* hit, by the source's call; u = inconclusive; x = no result given. These rows are one share of the data, so the mix of outcomes need not match the whole.

SMILES	Ecoli rRNA inh	Ecoli rRNA inh OD600	Ecoli rRNA inh RFP	Vif A3G	RanGTP-Imp inh	Calb FLC	A1 inh	MLL AF4-AF9 inh	T cruzi inh	Beta apoptosis
Cc1ccc(C(=O)N2CCN(c3ccccn3)CC2)cc1Cl	-12	-8	0.8	x	3.1	13	-0.4	0.6	-8	1
COc1ccccc1C(=O)Nc1nc(N)n(-c2ccccc2)n1	x	x	x	-4%	-0.1	12	-0.3	x	-6	x
O=C(CSc1nnc(Nc2ccccc2)s1)NC1CC1	1	14	2.1	4%	x	x	0.5	0.2	x	-2
COc1ccc(/C=N/NC(=O)CCc2n[nH]c(=O)[nH]c2=O)cc1O	11	8	-1.4	x	-2.3	0	-0.6	-4.2	-24	x
O=c1[nH]n(-c2ccc(Cl)cc2)c2ncccc12	x	x	x	-4%	-2.9	54	-0.7	x	-7	-4
Cc1ccc(CNC(=O)CCCC(=O)c2ccccc2)cc1	1	2	0.9	9%	0.4	-9	0.2	-2.8	-8	-5
CC(C)OCCCn1c(SCC(=O)N2CCCC2=O)nc2ccccc2c1=O	-1	-2	1.3	2%	-0.6	-4	0.2	-1.5	1	-6
N#Cc1nc(-c2ccco2)oc1N1CCN(C(c2ccccc2)c2ccccc2)CC1	-3	0	0.8	-17%	u	4	0.1	-7.3	14	1
NC(=O)SCC(=O)Nc1cccc(Cl)c1	x	x	x	4%	3.4	-6	-0.6	x	-10	-30
COc1ccc(-c2c(C)n([O-])c3c([n+]2=O)CCCC3)cc1OC	x	x	x	-4%	0.4	2	-0.2	x	-7	x
Nc1ncnc(Nc2ccc(F)c(Cl)c2)n1	5	5	0.1	-7%	7.9	7	-0.2	-6.6	-2	-2
COC(=O)c1ccc(NC(=O)CCC(=O)c2ccc(F)cc2)cc1	2	5	-1.5	0%	1.5	0	-0.1	0.9	0	4
COCCNC(=O)c1cccc(NC(=O)C2=C(C)OCCS2)c1	4	8	-3.0	-8%	2.7	8	-0.6	-2.0	-9	-5
CSc1ccc(C2C3(C#N)C(N)=NC4(OCCO4)C23C#N)cc1 (centres undefined)	x	x	x	0%	2.5	-9	-0.8	x	1	x
Cc1nc(CN(C)C(=O)c2ccccc2OC2CCN(S(C)(=O)=O)CC2)cs1	14	8	1.0	12%	-3.6	-2	0.8	-2.0	-10	-4
Cc1ccc(C(C)C)c(OCC(=O)Nc2ccc(Cl)cn2)c1	x	x	x	-4%	6.3	1	0.6	x	36	8
CC(C)Cc1nnc(NC(=O)c2cc(S(=O)(=O)N(C)C)ccc2N2CCCC2)s1	-4	-6	0.9	x	6.0	-21	0.1	-1.2	17	-4
O=C1OCCN1c1c(-c2ccccc2)c(-c2cccs2)nc2c(-c3ccccc3)cccc12	x	x	x	x	2.9	-22	-0.3	x	-2	-4
COc1ccc2c(c1)Cc1sc(NC(=O)c3ccco3)nc1-2	x	x	x	3%	2.5	-4	-1.0	x	37	3
COc1ccccc1OCCNc1cc(N2CCCCC2)ccc1[N+](=O)[O-]	-4	-6	0.7	-7%	3.1	u	-0.1	7.8	18	-4
Cn1nnnc1SCc1nc2scc(-c3ccc(Cl)cc3)c2c(=O)[nH]1	1	6	0.0	-2%	-9.9	9	-0.2	1.9	8	13
CNC(=S)N1N=C(c2cccs2)CC1c1ccc(F)cc1 (centres undefined)	-13	-10	-1.5	-10%	3.5	-12	-0.7	u	11	1
c1coc(CN=C2NC(=NCc3ccco3)c3ccccc32)c1	x	x	x	8%	3.1	-32	-0.3	x	-3	0
Nc1nnc(COc2ccccc2)s1	x	x	x	6%	-2.4	-1	0.5	x	-9	5
CC(=O)c1ccc(NS(=O)(=O)Cc2ccccc2)cc1	x	x	x	2%	1.7	-35	-0.8	x	-3	0
CC(C)N(Cc1cc2ccccc2[nH]c1=O)C(=O)c1ccco1	14	1	0.1	8%	-2.3	1	0.5	0.9	-23	x
COc1ccc(OC)c(S(=O)(=O)Nc2cc(C(=O)O)ccc2N2CC3CC(C2)c2cccc(=O)n2C3)c1 (centres undefined)	9	10	0.3	12%	-2.0	-28	0.6	-1.5	-4	-4
Oc1ccc(-c2cccc(-c3ccc(O)cc3)n2)cc1	x	x	x	0%	-2.0	-12	0.7	x	-1	-15
COc1cccc(CNS(=O)(=O)c2ccc(N3CCCC3=O)cc2)c1	9	2	0.2	x	0.1	14	0.6	1.5	-20	7
Cc1ccc(NC(=O)CN(C)C(=O)C2COc3ccccc3O2)cc1 (centres undefined)	9	12	2.0	-11%	3.3	-3	1.4	-0.8	-3	-8
CC1CCCC(C)N1C(=O)C1CC(c2ccc(F)cc2)=NO1 (centres undefined)	x	x	x	3%	1.2	-26	-0.9	x	-8	-2
C=CCOc1cccc(C2/C(=C(\O)c3ccc4c(c3)OCCO4)C(=O)C(=O)N2CCN2CCOCC2)c1 (centres undefined)	-2	-3	-1.0	x	2.5	0	0.7	-13	-32	x
O=C(Nc1ccncc1)Nc1ccncc1	13	-2	-2.8	6%	2.7	10	0.1	-1.8	-14	5
Cc1ccc(-n2nnnc2SCC(=O)Nc2ccc3c(c2)OCCO3)cc1C	x	x	x	27%	-1.6	u	-1.0	x	-7	3
O=C(c1ccco1)N1CCN(C(=O)c2cccs2)CC1	8	6	-1.8	-2%	3.7	-3	0.8	6.8	-14	-3
O=S(=O)(c1ccccc1)c1nnn2c1nc(NC1CCN(Cc3ccccc3)CC1)c1cc(Cl)ccc12	-5	-12	-0.4	x	5.0	49	-0.4	0.9	21	20
O=C1NCCc2c1[nH]c1ccccc21	x	x	x	u	-3.0	-2	0.3	x	8	-1
CC1CCN(CCOCCOc2ccc(Br)cc2Cl)CC1	x	x	x	x	-1.7	4	1.8	x	46	-7
COC(=O)C(Cc1c[nH]c2ccccc12)NC(=O)c1ccccc1Br (centres undefined)	-9	-4	-2.2	x	2.0	-5	-0.3	5.3	-13	-4
CCOC(=O)N1CCC2(CC1)C(C#N)=C(N)Oc1n[nH]c(C)c12	x	x	x	4%	0.8	9	0.6	x	-16	-2

Given with two lines to a compound: entries from further up.
Values in the order: Ecoli rRNA inh, Ecoli rRNA inh OD600, Ecoli rRNA inh RFP, Vif A3G, RanGTP-Imp inh, Calb FLC, A1 inh, MLL AF4-AF9 inh, T cruzi inh, Beta apoptosis
> O=C1NCCc2c1[nH]c1ccccc21
→ x, x, x, u, -3.0, -2, 0.3, x, 8, -1
> CC1CCN(CCOCCOc2ccc(Br)cc2Cl)CC1
→ x, x, x, x, -1.7, 4, 1.8, x, 46, -7

(list continues)
SMILES	Ecoli rRNA inh	Ecoli rRNA inh OD600	Ecoli rRNA inh RFP	Vif A3G	RanGTP-Imp inh	Calb FLC	A1 inh	MLL AF4-AF9 inh	T cruzi inh	Beta apoptosis
CN1CCN(C(=S)Nc2cc(S(=O)(=O)N3CCOCC3)ccc2Cl)CC1	2	0	-1.5	x	-5.3	-7	0.9	-1.3	-3	-27
CCCCOc1ccccc1-c1cc(C(=O)O)[nH]n1	x	x	x	0%	3.7	-1	-0.6	x	-4	0
COc1ccc(C(=O)NCC(=O)N/N=C/C(C)=C/c2ccco2)cc1OC	x	x	x	20%	u	-1	0.5	x	-6	x
CNC(=O)c1cccn1-c1ccsc1C(=O)OC	x	x	x	1%	2.2	1	2.5	x	-6	-1
O=C(c1cc2ccccn2n1)N1CCN(c2ccccn2)CC1	4	13	-3.8	-3%	u	14	-0.6	-0.7	0	5
O=C(OCc1ccccc1)c1cccc(-c2nnn(Cc3ccccc3)n2)c1	x	x	x	6%	-2.3	-1	0.4	x	-1	2
Cn1c(SCc2ccc(Br)cc2)nnc1-c1ccncc1	6	3	-2.3	3%	-1.1	-1	-0.1	0.9	-17	6
Cc1ccc(-c2nc(N)sc2CC(=O)OCC(=O)NCCC(C)C)cc1	x	x	x	-4%	-5.5	-1	1.0	x	-17	1
O=C(COC(=O)c1ccccc1NC(=O)c1ccccc1)c1ccc([N+](=O)[O-])cc1	x	x	x	1%	5.5	u	0.0	x	5	-3
COc1ccc2c(c1)C(c1ccc([N+](=O)[O-])cc1)=NNC(c1ccco1)=N2	10	13	-1.0	32%	-2.1	2	0.8	-7.2	30	-5
c1ccc2cc(CN3CCOCC3)ccc2c1	x	x	x	7%	-2.4	0	1.3	x	-8	x
CC(=O)Nc1ccc(S(=O)(=O)N(Cc2ccccc2)c2ccccc2F)cc1	7	11	1.1	-4%	-4.5	-9	-1.4	0.4	23	5
CCOc1cc(C(=O)N2CCOCC2)ccc1OCc1ccccc1	x	x	x	1%	-3.7	-1	0.0	x	-1	-6
CC(=O)N(C)N1c2ccccc2CCc2ccccc21	-37	-42	-17	-13%	-1.4	u	1.5	-2.3	-5	-1
COc1ccc(-c2cnnc(N/N=C/c3ccc(O)c(O)c3)n2)cc1	x	x	x	x	0.0	8	-0.6	x	-18	15
O=C(Cc1nc2ccccc2[nH]1)c1ccc(Cl)cc1	0	-1	0.0	x	1.4	9	0.3	2.1	-4	4
Cc1cc(C)cc(NC(=O)Nc2ccccc2N2CCCCC2)c1	7	9	-0.6	-11%	1.6	5	0.0	1.4	27	4
O=S(=O)(/N=C(/Nc1ccccc1)C(F)(F)F)c1ccccc1	x	x	x	u	-9.2	14	0.0	x	-11	2
Cn1c(=O)oc2cc(S(=O)(=O)NCc3ccco3)ccc21	-2	5	5.1	4%	-7.9	-11	x	-15	-2	-4
O=c1c2cc(Br)ccc2nc(-c2cccc(C(F)(F)F)c2)n1O	x	x	x	u	5.1	90*	-0.1	x	-8	7
CC1CCCN(S(=O)(=O)c2ccc3c(c2)c(=O)nc2ccc(Cl)cn23)C1 (centres undefined)	-11	-13	1.4	x	1.9	10	-0.4	-3.8	4	-1
CCOC(=O)c1c(NC(=O)CSC(=S)N(C)C)sc(C)c1C	7	4	2.8	-7%	3.6	18	-0.2	-0.1	16	3
O=C(COC(=O)C1CCN(S(=O)(=O)c2ccccc2)CC1)NCCc1ccccc1	-9	-7	6.7	5%	x	x	2.1	-1.4	x	-1
CSc1ccccc1C(=O)NC1CCCN(c2ccc(C(F)(F)F)cn2)C1 (centres undefined)	-2	5	-3.0	x	3.3	0	1.6	-6.4	14	-3
Cc1ccccc1-n1c(=O)/c(=C\c2ccco2)s/c1=C(/C#N)C(=O)Nc1ccccc1	x	x	x	u	u	10	-0.8	x	0	2
COc1ccccc1CN(C)C(=O)c1cccc(S(=O)(=O)N2CCN(Cc3ccccc3)CC2)c1	-27	-35	-5.3	4%	5.6	3	0.2	-1.2	30	-5
CC(C)N(C(=O)CSc1nc2ccccc2n1Cc1ccccc1)C(C)C	x	x	x	x	4.6	-10	-0.5	x	25	1
